# GIV Gai3 FP = GIV-Galpha-i interaction inhibition | P08753 | Galpha-i3/FITC-GIV peptide fluorescence polarization, 90 min; active compounds read low; scaled: aluminum fluoride 0%, vehicle 100% | percent of control (FP), % (test concentration not listed) | 210,000 compounds, 0.42% hits;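 active = replicate mean at 85% of control or lower, very high polarization wells dropped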;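 note: lower values mean more displacement of the GIV peptide from Galpha-i3; wells of about 15 µL received 100 nL stock; the first replicate is given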
# Target sequence (P08753 whole entry, looked up): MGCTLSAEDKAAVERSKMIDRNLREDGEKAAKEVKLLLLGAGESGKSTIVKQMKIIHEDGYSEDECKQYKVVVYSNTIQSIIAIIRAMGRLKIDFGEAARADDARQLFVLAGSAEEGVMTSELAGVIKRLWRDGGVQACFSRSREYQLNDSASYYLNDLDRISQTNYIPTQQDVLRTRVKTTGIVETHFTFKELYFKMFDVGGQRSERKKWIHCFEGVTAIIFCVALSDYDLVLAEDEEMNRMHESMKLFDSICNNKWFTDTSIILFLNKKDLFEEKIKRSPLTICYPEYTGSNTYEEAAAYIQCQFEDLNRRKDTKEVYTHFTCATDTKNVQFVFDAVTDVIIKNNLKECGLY
# Sa growth 42C = S. aureus growth inhibition; S. aureus RN4220 growth, OD600, 20 h, 42 °C; active compounds read low; relative growth, % (test concentration not listed); 170,000 compounds, 0.53% hits; AID 720641;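 active = growth at 42 °C up to 50% and 20 or more points under that at 30 °C, or under 10% at both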;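 note: 300 nL library stock went into each well; scaled to the means of positive and negative controls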
# HCMV NEC inh = inhibitors of HCMV UL50-UL53 nuclear egress complex interaction | HTRF UL50-UL53 interaction, normalized percent inhibition | inhibition, % (no concentration beside the values) | 190,000 compounds, 0.15% hits | AID 1918969;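 active = both replicates at 50% or more, plus weaker picks with an unusually low signal ratio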;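 note: stock transfer was 100 nL into about 20 µL; 0% = negative control wells and 100% = wells with untagged competitor protein; inactives centre near -12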
# Sa growth 42C second temp = also measured in Sa growth 42C; calls as there; relative growth, %; measured here: growth at 30 °C;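 optical density after 20 h as mean of two plates; 100% = untreated growth and lower means inhibition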
# Active calls of the source: *; . = no result given; & = joins results of further samples.
SMILES,GIV Gai3 FP,Sa growth 42C,Sa growth 42C second temp,HCMV NEC inh
O=C(Cn1c(=O)n(CC2CCCO2)c(=O)c2ccc(C(=O)NC3CCCCC3)cc21)Nc1ccc(F)cc1 (stereo unspecified),102,112,96,3
COc1cc(C(=O)Nc2ccc3nc4n(c(=O)c3c2)CCCCC4)cc(OC)c1OC,105,91,66,-32
COCCn1c(Cc2ccccc2)nnc1SCC(=O)c1ccc(O)cc1O,.,91,83,-37
Cn1c(=NC(=O)Cn2cnnn2)sc2ccccc21,.,93,89,-9
CCOc1ccc(NC(=O)Cn2cc(C(=O)c3ccc(OCC)cc3)c(=O)c3cc4c(cc32)OCCO4)cc1,97,111,91,-42
COc1cccc2cc(-c3nnc(Nc4ccccc4C)s3)c(=O)oc12,111,88,90,.
Cc1ccc(Cn2c(CNC(=O)Cc3cccc([N+](=O)[O-])c3)nc3cccnc32)cc1,107,104,92,.
CC(C)(C)C(=O)Nc1ccn([C@H]2C[C@H](O)[C@@H](COC(=O)C(C)(C)C)O2)c(=O)n1,110,106,88,-23
COc1ccc(C2C3CCc4ccccc4C3=NN2C(=O)CN2CCOCC2)cc1 (stereo unspecified),105,99,89,-7
O=C(COC(=O)c1ccccc1C(=O)c1ccc(Cl)cc1)Nc1ccccc1,.,119,92,-15
CN1CCN(NC(=O)Cc2cccs2)CC1,105,97,112,3
Cn1nc(C(=O)NCCCN2CCN(c3ccccc3F)CC2)cc1C(F)(F)F,102,.,.,-6
COc1cccc(-c2nn(C)c3sc(C(=O)NC4CCCCC4)cc23)c1,96,95,91,0
O=C(NCc1ccc(Cl)cc1)c1cc(-c2ccc(F)cc2)nc2ccccc12,99,106,85,.
Fc1ccc(CN(C(=S)Nc2ccccc2F)C2CCCCC2)cc1,101,71,43,.
CC(=O)c1ccc(N2CCN(C(=O)C3CCN(S(=O)(=O)c4cn(C)cn4)CC3)CC2)cc1,95,112,85,.
CC1CCCCN1C(=O)C1c2ccccc2Oc2ccccc21 (stereo unspecified),98,91,88,.
Cc1ccc(S(=O)(=O)n2nccc2-c2c(-c3ccc(Cl)cc3)noc2C)cc1,102,104,88,-10
CC12CN3CC(C)(CN(C1)C3C1CCCCC1)C2=O (stereo unspecified),101,100,91,.
Cc1ccc(S(=O)(=O)NC(=O)NC2CCCCC2NC(=O)NS(=O)(=O)c2ccc(C)cc2)cc1 (stereo unspecified),.,92,98,-5

# 3 compounds from above with just GIV Gai3 FP, Sa growth 42C and Sa growth 42C second temp:
Compound,GIV Gai3 FP,Sa growth 42C,Sa growth 42C second temp
COc1cccc2cc(-c3nnc(Nc4ccccc4C)s3)c(=O)oc12,111,88,90
Cc1ccc(Cn2c(CNC(=O)Cc3cccc([N+](=O)[O-])c3)nc3cccnc32)cc1,107,104,92
CC(C)(C)C(=O)Nc1ccn([C@H]2C[C@H](O)[C@@H](COC(=O)C(C)(C)C)O2)c(=O)n1,110,106,88

# Next section.
SMILES,GIV Gai3 FP,Sa growth 42C,Sa growth 42C second temp,HCMV NEC inh
Cc1cc(C)cc(Oc2coc3cc(OCC(=O)OCc4ccccc4)ccc3c2=O)c1,101,.,.,-10
CC1Cc2cc(S(=O)(=O)N(C)CC(=O)N3CC=C(c4ccccc4)CC3)ccc2N1C(=O)C1CC1 (stereo unspecified),105,.,.,-12
Clc1cccc(-n2ncc3c(NC4CCCCC4)ncnc32)c1,106,117,99,.
CCC(=O)N1N=C2CCCCC2C1(O)C(F)(F)F (stereo unspecified),105,91,76,5
Cc1ccnc(N2CCCC(C(=O)NCCCc3ccccc3)C2)n1 (stereo unspecified),100,91,91,-3
CCCCNc1nc2ccccc2n1CC(=O)c1cc(C)n(C)c1C,.,102,85,-9
CCC(C)(C)n1nnnc1CN1CCC(NC(=O)COC)CC1,106,112,90,6
CCOC(=O)c1c(CSc2ccccc2)n(C)c2ccc(O)c(CN3CCN(C)CC3)c12,101,.,.,1
Cc1cc2ncn(CCC#N)c2cc1C,103,104,89,-9
COc1ccc(-c2cn(-c3ccc(C)cc3)c(S(=O)(=O)CC(=O)Nc3ccccc3)n2)cc1,108,100,101,33
COc1ccc(C2Nc3ccccc3C(=O)N2c2ccc(F)cc2)cc1CN1CCOCC1 (stereo unspecified),99,.,.,-22
COC1(OC)N=C(N)C2(C#N)C3C=CC(CC3)C12C#N (stereo unspecified),.,88,90,-1
N#CCCn1nc(-c2ccccc2)cc1NS(=O)(=O)c1ccc(Cl)c(Cl)c1,110,104,92,-7
COc1ccccc1C(=O)NC(=O)Nc1ccc(-c2cc(C(F)(F)F)nn2-c2ccccc2)cc1,100,91,94,16
CC1=Nc2cc(C(=O)NC3CCCC3)ccc2Sc2ccc(C)cc21,103,114,86,-9
CN(C)C(=O)Cn1cc(S(=O)(=O)Cc2ccccc2)c2ccccc21,103,82,75,-35
Cc1ccccc1Nc1c(-c2ccccc2)nc2cccc(C)n12,103,111,87,3
Cc1ccc(-c2nc3ccccc3[nH]2)cc1NC(=O)COc1cccc(C)c1C,102,80,84,-14
CC(CCc1ccccc1)NC(=O)c1ccc(=O)[nH]c1 (stereo unspecified),.,87,90,-6
Cc1nn(-c2ccccc2)c2sc(C(=O)OCc3cscn3)cc12,.,94,83,-3

# Arranged by molecular weight (low to high): part of the list above.
SMILES,GIV Gai3 FP,Sa growth 42C,Sa growth 42C second temp,HCMV NEC inh
Cc1nn(-c2ccccc2)c2sc(C(=O)OCc3cscn3)cc12,.,94,83,-3
CCOC(=O)c1c(CSc2ccccc2)n(C)c2ccc(O)c(CN3CCN(C)CC3)c12,101,.,.,1
CC(=O)c1ccc(N2CCN(C(=O)C3CCN(S(=O)(=O)c4cn(C)cn4)CC3)CC2)cc1,95,112,85,.

# Next records:
SMILES,GIV Gai3 FP,Sa growth 42C,Sa growth 42C second temp,HCMV NEC inh
NNC(=O)Cc1nc2ccccc2[nH]1,.,74,68,-15
COc1ccc2ncc(O)cc2c1,103,87,96,-25
Cc1ccn2c(C(=O)O)c(C)nc2c1,104,.,.,2
Cc1[nH]c2ccc(-c3nnc(SCc4ccc(C(=O)O)cc4)o3)cc2c1C,102,63,32,13
N#Cc1ccccc1CSc1n[nH]c(=O)[nH]c1=O,97,101,85,-17
CCCn1c(=O)c(CCc2ccccc2)nc2c1c(=O)[nH]c(=O)n2Cc1ccccc1,.,86,104,-24
COc1ccc(S(=O)(=O)n2nc(-c3ccco3)nc2NCc2ccc(N(C)C)cc2)cc1,100,111,91,-5
O=C(CSc1nnc(-c2cccc(S(=O)(=O)N3CCOCC3)c2)o1)Nc1ncc(C(F)(F)F)cc1Cl,.,58,82,0
N#C/C(=C(/O)CN1CCCN(c2ccc(C(F)(F)F)cn2)CC1)c1nc2ccccc2[nH]1,.,88,96,-21
COc1ccc(Oc2cc(F)nc(N)n2)cc1,111,94,107,2
COc1ccc(CNC(=O)Cn2c(=O)c(C)nc3ccccc32)cc1,111,.,.,-44
COC(=O)CSc1nc2ccccc2n1-c1cccc(C)c1,.,83,71,-18
O=c1c(S(=O)(=O)c2ccc(F)c(Cl)c2)c[nH]c2cc(F)ccc12,98,.,.,-20
CC(C)n1cc(C(=O)c2ccccc2O)cc1-c1nc2ccccc2c(=O)[nH]1,.,79,89,-11
NC(C(=O)N[C@@H]1C(=O)N2C(C(=O)O)=C(Cl)CS[C@H]12)c1ccccc1 (stereo partly specified),105,.,.,-16
O=C(CSc1nc(-c2ccccc2)nc2cc(=O)[nH]n12)Oc1ccccc1,103,.,.,8
Cc1ccn2c(=O)cc(CNCC(c3ccc(F)cc3)N3CCOCC3)nc2c1 (stereo unspecified),.,92,87,-33
Cn1c(=O)c2c(nc(Oc3ccccc3)n2Cc2c(Cl)cccc2Cl)n(C)c1=O,105,99,94,-22
O=C(c1ccccc1)N1CCN(C(=O)c2nn3c(c2Br)NC(c2ccco2)CC3C(F)(F)F)CC1 (stereo unspecified),95,.,.,-26
COc1ccc(OC)c(/C=C/C(=O)NCCN2CCC(N(C)C3CCCCC3C)CC2)c1 (stereo unspecified),105,101,92,-38
CCOc1ccc(C(=O)N2CCC(c3nc4ccccc4o3)CC2)cc1,105,102,84,-32
Cc1ccc(S(=O)(=O)N2CC=C(C(=O)NCc3cccs3)CC2)cc1,103,100,75,.
Cc1ccc(-c2cc(NCc3ccccc3)nc(SCC(C)C)n2)cc1,105,.,.,-11
COc1ccc(Nc2nc3ccccc3nc2-c2ccccc2)cc1,100,84,79,-16
Cc1ccc2c(c1)-c1c(cnn1CC(=O)NCCc1ccsc1)CO2,98,97,88,-18
O=C(NCC(c1ccc2c(c1)OCO2)N1CCOCC1)C(=O)Nc1cccc(Cl)c1 (stereo unspecified),98,127,88,.
O=C(COC(=O)C1CCCCC1)c1ccc(Cl)s1,.,104,91,-50
CNC(=O)Nc1ccc(C(=O)NC)cc1,.,87,80,-5
CC1CC(C)CN(S(=O)(=O)N2CCCC(C(=O)NCCN3CCOCC3)C2)C1 (stereo unspecified),104,115,94,.
CCCCNC(=O)CN1C(=O)COc2ccc(S(=O)(=O)N3CCCCCC3)cc21,104,104,83,2
COc1ccc(Cn2nnnc2CN2CCc3ccccc32)cc1,103,94,81,-1
CCC1c2ccc(C)n2CCN1C(=O)Nc1ccccc1Cl (stereo unspecified),107&104,94,75,-18&-19
CC1=C/C(=N\NC(=O)COc2ccc(C#N)cc2)CC(C)(C)C1,.,98,92,-25
Cc1nn(C(C)C(=O)NC(C)CCc2ccccc2)c(=O)c2cc3sccc3n12 (stereo unspecified),105,100,83,-20
Cc1cc(SCc2ccc(F)cc2)c(C)cc1Cl,108,105,102,0
Cc1ccc(CNC(=O)Cn2sc3nc(C)cc(C)c3c2=O)cc1,109,87,48,3
O=C(Nc1ccccc1C(F)(F)F)N1CCC(CN2CCc3ccccc3C2)CC1,112,112,99,.
O=C(NCCN1CCCC1)Nc1ccccc1C(F)(F)F,101,90,96,.
CCOC(=O)c1ccc(N2C(=N)S/C(=C\c3ccc(C)c([N+](=O)[O-])c3)C2=O)cc1,116,.,.,0
c1ccc(CCc2nnc3c4c5c(sc4ncn23)CCCC5)cc1,105,.,.,-19

# Quoted at random: 5 compounds from above, in no set order.
SMILES,GIV Gai3 FP,Sa growth 42C,Sa growth 42C second temp,HCMV NEC inh
COc1ccc(Cn2nnnc2CN2CCc3ccccc32)cc1,103,94,81,-1
Cc1ccc(-c2cc(NCc3ccccc3)nc(SCC(C)C)n2)cc1,105,.,.,-11
CNC(=O)Nc1ccc(C(=O)NC)cc1,.,87,80,-5
Cc1ccc2c(c1)-c1c(cnn1CC(=O)NCCc1ccsc1)CO2,98,97,88,-18
Cc1nn(C(C)C(=O)NC(C)CCc2ccccc2)c(=O)c2cc3sccc3n12 (stereo unspecified),105,100,83,-20

# Back to the main list with the 4 entries that preceded the break.
SMILES,GIV Gai3 FP,Sa growth 42C,Sa growth 42C second temp,HCMV NEC inh
O=C(Nc1ccccc1C(F)(F)F)N1CCC(CN2CCc3ccccc3C2)CC1,112,112,99,.
O=C(NCCN1CCCC1)Nc1ccccc1C(F)(F)F,101,90,96,.
CCOC(=O)c1ccc(N2C(=N)S/C(=C\c3ccc(C)c([N+](=O)[O-])c3)C2=O)cc1,116,.,.,0
c1ccc(CCc2nnc3c4c5c(sc4ncn23)CCCC5)cc1,105,.,.,-19
CCOC(=O)c1c(C2CCN(C(=O)OCC)CC2)nc2ccccn12,103,83,91,.
COc1ccc2oc(=O)cc(CN3CCN(Cc4ccccc4)CC3)c2c1,99,95,91,-20
Cc1ccc(-n2nc(C(=O)Nc3ccc(C)c(F)c3)c3c4ccccc4n(C)c3c2=O)cc1,100,94,88,-7
CN1CCN(S(=O)(=O)c2ccc3c(c2)oc(=O)c2cc(S(=O)(=O)N4CCN(C)CC4)ccc23)CC1,104,83,100,-26
O=C(NC(NCC12CC3CC(CC(C3)C1)C2)(C(F)(F)F)C(F)(F)F)c1ccccc1,.,109,84,-4
COc1cc(C2CC(=O)Nc3c2c(=O)n(C)c(=O)n3C)cc(OC)c1OC (stereo unspecified),100,96,89,.
COc1ccc(-c2noc(N3CCCC(C(=O)N(C)c4cc(Cl)ccc4OC)C3)n2)cc1 (stereo unspecified),97,98,89,0
CCOc1ccc(N2C(=O)/C(=C/c3ccc(N4CCCCC4)o3)C(=O)NC2=S)cc1,254,.,.,-18
COc1ccccc1NC(=O)CC1C(=O)NC2CCCCC2N1C(=O)C(F)(F)F (stereo unspecified),105,95,91,-34
Cc1cc(SCC(=O)Nc2oc(C)c3c(C)n[nH]c(=O)c23)nc2ccccc12,.,103,79,-48
CCn1c(C(=O)N2CCCC(C(=O)NCCCOC)C2)cc2sccc21 (stereo unspecified),96,88,95,5
NNc1nc(-c2ccco2)cc(C(F)(F)F)n1,111,83,56,.
